SARS PLP yeast: SARS-CoV PLP inhibition in yeast; S. cerevisiae expressing SARS-CoV PLpro, growth rescue; control for the full effect not named in the record; 0.19% of 330,000 active; Potency, µM (doses to about 32.9 µM), inactives show at the highest dose activity, positive = growth rescue; further: 0% is about no effect; nearly all actives have a fitted effect of over 55% in size; growth read by luminescence after 48 h
LASV entry inh: inhibitors of Lassa virus binding or cell entry; Lassa virus pseudotype entry inhibition, cell reporter; control for the full effect not named in the record; Potency, µM (highest dose often 37.9 µM), inactives show at the highest dose activity change, negative = inhibition, most hits filed as inhibitors; 1.2% of 300,000 active; active means well fitted inhibition curve with a large enough effect; inconclusive means small, poorly fitted or top-dose-only effect, or effect the other way; inactive means flat fitted curve, though single readings scatter; tested in HEK293 cells; further: on the % scale 0 is the no-effect control and ±100 the full control effect; nearly all actives have a fitted effect of over 50% in size; luciferase read-out
StopGo reporter: lowers the luciferase signal of an FMDV 2A StopGo reporter | human cells with a luciferase reporter of 2A StopGo recoding; control for the full effect not named in the record | Potency, µM (doses to about 57.9 µM), without a hit: top-dose signal change, negative = less light | 1.2% of 410,000 active; active = well fitted falling curve with a large enough effect; inconclusive = small, poorly fitted or top-dose-only effect; inactive = no such curve, though single readings can be large or run the other way; tested in HEK293T cells; further: on the % scale 0 is the no-effect control and ±100 the full control effect; nearly all actives have a fitted effect of over 45% in size; luciferase light after 4 h
MARV entry inh: blocks Marburg virus binding to or entry into cells; Marburg virus pseudotyped entry inhibition, cell reporter; control for the full effect not named in the record; about a third of the inactives were read at about 46 µM; Potency, µM (titrated, usually from 37.8 µM), for inactives: at the top dose activity change, negative = inhibition, usual class: inhibitors; 1.8% of 300,000 active; active = well fitted inhibition curve with a large enough effect; inconclusive = small, poorly fitted or top-dose-only effect, or effect the other way; inactive = flat fitted curve, though single readings scatter; tested in HEK293 cells; about a fifth of its hits are not listed in these tables; further: on the % scale 0 is the no-effect control and ±100 the full control effect; luciferase read-out
Cruzain noTriton: inhibitors of Trypanosoma cruzi cruzain without detergent. AID 1476. 2.3% of 200,000 active. P25779. Potency, µM, inactives show max response, negative = inhibition, actives largely listed as inhibitors. purified cruzain, Z-FR-AMC fluorescence, no detergent; active means well fitted curve in the direction sought with a large enough effect; inconclusive means small, poorly fitted or top-dose-only effect, or another doubt; inactive means no such curve, though single readings can be large; an effect the other way counts as inactive or inconclusive;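 further: plate controls were enzyme without inhibitor for no effect and buffer without enzyme for full effect; nearly all actives have a fitted effect of over 40% in size; top concentration of the series not given in the record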
Target sequence (P25779 123-467 limits assumed): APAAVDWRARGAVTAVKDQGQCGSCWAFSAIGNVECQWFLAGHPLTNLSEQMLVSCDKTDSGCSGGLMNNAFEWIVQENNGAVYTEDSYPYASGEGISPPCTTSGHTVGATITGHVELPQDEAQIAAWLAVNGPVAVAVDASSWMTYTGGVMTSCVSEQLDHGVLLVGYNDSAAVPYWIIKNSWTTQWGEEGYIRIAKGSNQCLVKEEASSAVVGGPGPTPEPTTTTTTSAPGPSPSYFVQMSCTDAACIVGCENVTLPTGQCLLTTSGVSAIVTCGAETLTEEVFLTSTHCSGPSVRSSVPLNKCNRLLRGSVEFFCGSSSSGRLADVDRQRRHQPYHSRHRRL
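Purified cruzain at 1.5 nM, pre-incubated 15 min with compound at room temperature in 100 mM sodium acetate pH 5.5, 5 mM DTT, 0.00005% Triton X-100. Reaction started with 2 uM Z-FR-AMC; AMC fluorescence increase over 60 s gives rate.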
NS1 inh: influenza NS1 inhibition. S. cerevisiae slowed by influenza A NS1, growth recovery by OD600. Potency, µM (doses to about 46.1 µM), for the others: top-dose activity, positive = more growth. 0.4% of 270,000 active. AID 2326; further: actives are rising curves; nearly all actives have a fitted effect of over 50% in size
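In this qHTS, NS1 from influenza A is expressed in budding yeast, where it slows growth. Cells are switched from glucose to 2% galactose medium (pH 6.0, -URA), treated with compound, and growth recovery is read at OD600.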
Cruzain Triton: inhibitors of Trypanosoma cruzi cruzain with detergent; AID 1478; 0.43% of 200,000 active; Potency, µM, for the others: max response, negative = inhibition, usual class: inhibitors; purified cruzain, Z-FR-AMC fluorescence, 0.01% Triton; P25779; active means well fitted curve in the direction sought with a large enough effect; inconclusive means small, poorly fitted or top-dose-only effect, or another doubt; inactive means no such curve, though single readings can be large; an effect the other way counts as inactive or inconclusive;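 further: plate controls were neutral wells for no effect and buffer without enzyme for full effect; nearly all actives have a fitted effect of over 40% in size; top concentration of the series not given in the record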
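Sodium acetate buffer (100 mM, pH 5.5) containing 5 mM DTT and 0.01% Triton X-100 hosted 1.5 nM cruzain and test compound for 15 min at room temperature. Cleavage of 2 uM Z-FR-AMC was then tracked by fluorescence.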
RE007 growth inh: less growth of the S. pombe RE007 Vpr strain | S. pombe RE007 Vpr strain, BacTiter-Glo ATP luminescence, 24 h; control for the full effect not named in the record | Potency, µM (doses to about 92.2 µM), inactives show at the top dose activity change, negative = less growth | 0.21% of 360,000 active; active = well fitted falling curve with a large enough effect; inconclusive = small, poorly fitted or top-dose-only effect; inactive = no such curve, though single readings can be large or run the other way;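 further: on the % scale 0 is the no-effect control and ±100 the full control effect; nearly all actives have a fitted effect of over 50% in size; the assay follows cell death caused by Vpr and the record does not say whether a fall means rescue or toxicity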
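Fission yeast strain RE007, carrying one chromosomally integrated HIV-1 vpr copy, was seeded at OD 0.01 in PMG+AL medium with 23 nL pinned compound. After 24 h at 30 °C and 99% humidity, viability was read by BacTiter-Glo luminescence.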
Starred values were filed as active, the others as inactive; ? = inconclusive; . = no result given; & = joins results of further samples; [ ] = another dose, or the depositor's remark. Unless noted, the call rests on the fitted dose curve; in most records, active means well fitted rising curve with a large enough effect; inconclusive means small, poorly fitted or top-dose-only effect; inactive means no such curve, though single readings can be large or run the other way. Potency means the concentration at half of the fitted maximal effect. Rows were taken by chance; overall some 4.7% were active at least once.

SMILES | SARS PLP yeast | LASV entry inh | StopGo reporter | MARV entry inh | Cruzain noTriton | NS1 inh | Cruzain Triton | RE007 growth inh
COc1cc([N+](=O)[O-])ccc1NC(=O)CSc1n[nH]c(C(C)C)n1 | -1% | 8% | -5% | -4%[46.1 µM] | . | . | . | 19%
COc1ccc(C(=O)Nc2oc(-c3ccccc3)c(-c3ccccc3)c2C#N)cc1 | 3% | ? | -18% | ? | 32µM* | -4% | -2.2% | 2%
Oc1ccc(-c2c(-c3ccsc3)sc3ccccc23)cc1 | -40% | . | ? | . | . | -43% | . | ?
c1ccc(-c2cnnn2-c2ccccc2)cc1 | -6% | 1% | 9% | ? | . | 0% | . | 6%
COC(=O)CSCC(=O)Nc1cc2c(cc1C(C)=O)OCO2 | 17% | 10% | -24% | 0% | -4% | -6% | -8.8% | 30%
CC(C)N(Cc1nc(-c2ccccc2)no1)C(=O)c1ccc(Cl)cc1 | -1% | . | -25% | . | 5% | -67% | -4.9% | 5%
CCC(C)NC(=O)Cn1c(=O)n(Cc2ccc(C(=O)NCCCOC)cc2)c(=O)c2ccccc21 (stereo not given) | . | 0%[46.1 µM] | 9% | 17%[46.1 µM] | -1% | . | -0.8% | .
O=C(Nc1ccccc1)Nc1ccc(Cl)c(S(=O)(=O)N2CCOCC2)c1 | -1% | -21%[46.1 µM] | ? | ? | . | . | . | 0%

Remaining list, next part.
SMILES | SARS PLP yeast | LASV entry inh | StopGo reporter | MARV entry inh | Cruzain noTriton | NS1 inh | Cruzain Triton | RE007 growth inh
O=C(CN(Cc1ccccc1)S(=O)(=O)c1ccc(F)cc1)NCc1cccnc1 | 1% | 9% | -18% | -14% | . | 3% | . | -10%
Cc1cc(C)nc(SCc2csc(N)n2)n1 | 5% | 15% | 18% | 9%[46.1 µM] | 3% | 0% | -2.5% | 13%
Cc1cc(C)c(S(=O)(=O)NCc2ccccn2)c(C)c1 | -6% | 0%[46.1 µM] | 18% | 10%[46.1 µM] | . | -6% | . | -19%
Cc1ccc2c(c1)C(=C(C#N)C#N)CCN2 | . | 16% | -18% | 5% | . | . | . | -13%
CC(=O)Nc1sc2c(c1C#N)CCCCC2 | -4% | 2% | 48%[activator] | 13% | 8% | -11% | -1.5% | 2%
COc1ccc(CNC(=O)CCCn2nc(C)n3c(cc4sccc43)c2=O)cc1 | 1% | . | -21%&-9% | ? | 3% | 13% | -1.7% | 7%
CSc1nc(Cc2ccc(Cl)cc2)nc2ccccc12 | -16% | -9% | -9% | -16% | -1% | -19% | -3.2% | -6%
CN(C)c1ccc(/C=C(/NC(=O)c2ccccc2)C(=O)NCCN2CCOCC2)cc1 | -3% | . | 12% | . | . | -3% | . | -4%

The results go on.
SMILES | SARS PLP yeast | LASV entry inh | StopGo reporter | MARV entry inh | Cruzain noTriton | NS1 inh | Cruzain Triton | RE007 growth inh
Clc1c(CSc2nc3ccccc3o2)nc2sccn12 | -16% | ? | -10% | ? | -17% | -58% | 0.0% | -7%
Cc1ccc(OCCNC(=O)/C=C/c2ccc([N+](=O)[O-])cc2)cc1C | 4% | -5% | 0% | -12% | 6% | -9% | -8.1% | ?
NC(=O)CCC(NC(=S)Nc1ccccc1)C(=O)O (stereo not given) | 0% | . | 2% | . | . | -4% | . | 1%
Cc1nc(NC(=O)COc2ccccc2)sc1C(=O)Nc1cccc(Cl)c1 | -7% | 6% | -3% | 0% | 6% | -9% | -1.6% | -2%
COc1ccccc1/C=C/C(=O)OCCCN(C)C | 1% | 17% | 1% | 4%[46.1 µM] | . | 4% | . | 18%
O=C(Nc1ccc2nc3n(c(=O)c2c1)CCCCC3)C(=O)Nc1ccccc1F | . | -22%[46.1 µM] | 8% | -14%[46.1 µM] | -8% | . | -9.3% | .
Cc1cccc(CCNC(=O)CCc2nnc(CCc3ccccc3)o2)n1 | -1% | . | 12% | . | . | 5% | . | 10%
CCCNC(=O)c1ccc(COc2ccc(Cl)cc2)o1 | -7% | . | -23% | . | . | -52% | . | 1%

Some of the entries so far, with two lines to a compound.
Values run as follows: SARS PLP yeast, LASV entry inh, StopGo reporter, MARV entry inh, Cruzain noTriton, NS1 inh, Cruzain Triton, RE007 growth inh
- Clc1c(CSc2nc3ccccc3o2)nc2sccn12
→ -16%, ?, -10%, ?, -17%, -58%, 0.0%, -7%
- Cc1ccc(OCCNC(=O)/C=C/c2ccc([N+](=O)[O-])cc2)cc1C
→ 4%, -5%, 0%, -12%, 6%, -9%, -8.1%, ?

Next records
SMILES | SARS PLP yeast | LASV entry inh | StopGo reporter | MARV entry inh | Cruzain noTriton | NS1 inh | Cruzain Triton | RE007 growth inh
Cc1ccccc1OCC(=O)Nc1nnc(COc2ccccc2)s1 | . | -6% | -4% | -6% | . | . | . | -4%
COc1ccccc1Nc1nc(C)cs1 | 4%&-12% | 30%&10% | 18%&62% | 0%&4% | 0%&2% | 7%&7% | -5.9%&0.0% | 7%&-23%
Cc1ccc(/C=N/NC(=O)Cc2ccc(O)cc2)s1 | 1% | . | 30% | . | . | -4% | . | 11%
COc1ccc(Cc2cnc(N)s2)cc1 | 0% | 0%[46.1 µM] | 8% | 0%[46.1 µM] | . | 2% | . | 15%
COc1cc(/C=N/NC(N)=O)cc(Br)c1OCc1ccc(C)cc1 | -2% | ? | 12% | ? | ? | 2% | 6.3% | -18%
COc1cccc(C(=O)NC(=S)Nc2nnn(C)n2)c1 | -12% | 5% | 32%[activator] | -17% | -18% | -12% | -0.5% | 1%
Cc1ccc(/C=N/N=C2/NC(=O)C(CC(=O)N3CCOCC3)S2)cc1 (stereo not given) | 0% | . | 2% | . | . | 4% | . | -1%
CCCc1nnc(NC(=O)C2CCCO2)s1 (stereo not given) | 6% | 11% | 52%[activator] | ? | 2% | 2% | 0.3% | 1%

More compounds:
SMILES | SARS PLP yeast | LASV entry inh | StopGo reporter | MARV entry inh | Cruzain noTriton | NS1 inh | Cruzain Triton | RE007 growth inh
O=c1c(N2CCN(c3cccc(C(F)(F)F)c3)CC2)csc2ccccc12 | . | 8%[46.1 µM] | -25% | . | -6% | . | -5.5% | .
Cc1ccc(-c2csc3ncnc(Nc4ccc(N5CCOCC5)cc4)c23)cc1 | -2% | 13µM* | ? | ? | ? | -1% | -2.3% | -8%
Cc1ccc2occ(CC(=O)N(Cc3ccc(C(C)C)cc3)C3CCS(=O)(=O)C3)c2c1 (stereo not given) | . | -11%[46.1 µM] | -29% | ? | ? | . | -13% | .
COc1cc(OC)c(OC)cc1/C=N/Nc1ccc(Cl)nn1 | 0% | ? | -1% | ? | . | -2% | . | -15%
COc1ccc(OCc2nnc(SC(C)C(=O)Nc3nccs3)n2-c2ccccc2)cc1 (stereo not given) | 4% | -18%[14.3 µM] | -39% | 1% | 9% | -45% | -2.0% | 2%
O=C(CCN1CCOCC1)N1CCc2c([nH]c3ccccc23)C1c1cccc(Cl)c1 (stereo not given) | 0% | ? | -4% | ? | . | 2% | . | 3%
O=C(CSCc1cccc(Br)c1)N=Nc1c(O)[nH]c2ccccc12 | -18% | ? | -8% | -6% | -9% | -50% | -4.3% | 18%
COc1ccc(/C=C/C(=O)C2CC2)cc1Cn1nc(C)c([N+](=O)[O-])c1C | -1% | 4% | ? | ? | . | -1% | . | -7%

The listing continues:
SMILES | SARS PLP yeast | LASV entry inh | StopGo reporter | MARV entry inh | Cruzain noTriton | NS1 inh | Cruzain Triton | RE007 growth inh
Cn1c(CNC(=O)c2cccs2)nnc1SCC(=O)Nc1ccccc1 | -8% | -4% | -17% | ? | 3% | 4% | -1.3% | ?
Cc1oc(-c2ccc(Cl)cc2)nc1CN1CCCN(C(=O)c2ccco2)CC1 | -1% | 7% | ? | ? | . | -5% | . | -1%
Cc1ccc(Cn2ccc(NC(=O)c3nn(C)cc3[N+](=O)[O-])n2)cc1 | -2% | -10% | -5% | ? | -4% | 1% | 0.3% | -12%
O=C(/C=C/c1ccc(Cl)c([N+](=O)[O-])c1)Nc1cccnc1 | 2% | 0% | 19% | -19% | -13% | 3% | -21% | 14%
Cc1ccc(Nc2nc(N)nc(CSc3nccn3C)n2)cc1 | 2% | ? | -20% | ? | -11% | 1% | -1.0% | 15%
CCc1nn(CC(=O)N2CCN(C)CC2)c(=O)c2cccn12 | -7% | . | -17% | . | . | 13% | . | -6%
COc1cc(/C=N/NC(=O)C(N)=O)ccc1OCC(=O)N1C(C)CCCC1C (stereo not given) | 1% | . | 49%[activator] | ? | . | . | . | -13%
N#CC1=C(N)N=C(SCc2cccc3ccccc23)C(C(N)=O)C12CCCCC2 (stereo not given) | -13% | ? | ? | ? | -9% | 8% | 2.1% | -7%
CC1CN(CCOc2ccccc2[N+](=O)[O-])CC(C)O1 (stereo not given) | 0% | -14%[46.1 µM] | -4% | -17%[46.1 µM] | . | -3% | . | 11%

Entries above containing an aryl thioether with sulfur outside any ring, in the order listed:
SMILES | SARS PLP yeast | LASV entry inh | StopGo reporter | MARV entry inh | Cruzain noTriton | NS1 inh | Cruzain Triton | RE007 growth inh
COc1cc([N+](=O)[O-])ccc1NC(=O)CSc1n[nH]c(C(C)C)n1 | -1% | 8% | -5% | -4%[46.1 µM] | . | . | . | 19%
Cc1cc(C)nc(SCc2csc(N)n2)n1 | 5% | 15% | 18% | 9%[46.1 µM] | 3% | 0% | -2.5% | 13%
CSc1nc(Cc2ccc(Cl)cc2)nc2ccccc12 | -16% | -9% | -9% | -16% | -1% | -19% | -3.2% | -6%
Clc1c(CSc2nc3ccccc3o2)nc2sccn12 | -16% | ? | -10% | ? | -17% | -58% | 0.0% | -7%
COc1ccc(OCc2nnc(SC(C)C(=O)Nc3nccs3)n2-c2ccccc2)cc1 (stereo not given) | 4% | -18%[14.3 µM] | -39% | 1% | 9% | -45% | -2.0% | 2%
Cn1c(CNC(=O)c2cccs2)nnc1SCC(=O)Nc1ccccc1 | -8% | -4% | -17% | ? | 3% | 4% | -1.3% | ?
Cc1ccc(Nc2nc(N)nc(CSc3nccn3C)n2)cc1 | 2% | ? | -20% | ? | -11% | 1% | -1.0% | 15%
